B2AR ag: human beta-2 adrenergic receptor agonism by FAP; 0.43% of 340,000 active; Am2.2-beta2AR cells, FAP receptor internalization, flow cytometry; reference of the scale not given here; response, % (test concentration not listed);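 active = response above a set limit, near 3 SD of response in nonfluorescent compounds, cut at about 42% in these data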;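 note: stock transfer was 100 nL into about 11 µL; a reference agonist was the positive control; negative values mostly stem from fluorescent compounds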
LANA-H2B inh: blocks KSHV LANA binding to histone H2A/H2B; inhibition, % (test concentration not listed); cell-free LANA-H2A/H2B peptide, fluorescence polarization; AID 2629; Q9QR71; 0.6% of 320,000 active; in the data active = inhibition mostly above about 10%, no sharp cut-off; inactive = mostly below about 6.7%;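 note: stock transfer was 7.5 nL into about 10 µL; 0% = median of vehicle wells and 100% = median of positive control wells; one replicate is shown; the record names a cut of 25% in any replicate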
ALR inh: human ALR oxidase inhibition via reduced H2O2 | P55789 | purified ALR, DTT oxidation, H2O2 HRP-luminol luminescence | inhibition, % (test concentration not listed) | 3.8% of 290,000 active | AID 485317;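 active = mean and each replicate at 75% or more; inconclusive = only one of the two met; inactive = neither met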;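 note: stock transfer was 7.5 nL into about 7.5 µL; 0% = neutral wells and 100% = wells with inactivated enzyme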
FGF22 binding: shifts melting point of recombinant human FGF22 | Q9HCT0 | recombinant FGF22 thermal shift, SYPRO orange fluorescence; percent of sucrose octasulfate shift, DMSO zero | calls only at 9.99 µM | 1.5% of 340,000 active | AID 651658;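 active = melting point raised past a set limit in the mean and every replicate; inconclusive = no clear call; three in four hits are not shown here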
Target sequence (Q9HCT0 whole entry, looked up): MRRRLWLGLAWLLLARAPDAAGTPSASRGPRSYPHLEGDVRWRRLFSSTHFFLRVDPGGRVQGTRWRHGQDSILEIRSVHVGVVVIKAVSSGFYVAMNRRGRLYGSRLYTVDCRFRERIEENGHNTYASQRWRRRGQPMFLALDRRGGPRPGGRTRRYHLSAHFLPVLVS
UCH37 DUB inh: inhibitors of human deubiquitinating enzyme UCH37; inhibition, % (no concentration beside the values); purified proteasome/UCH37, Ub-AMC cleavage fluorescence; AID 588478; Q9Y5K5; 0.33% of 330,000 active;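 active = mean of two replicates above 20%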;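 note: 0% = compound-free wells with enzyme and 100% = wells lacking proteasome; stock transfer was 100 nL into about 20 µL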
Target sequence (Q9Y5K5 whole entry, looked up): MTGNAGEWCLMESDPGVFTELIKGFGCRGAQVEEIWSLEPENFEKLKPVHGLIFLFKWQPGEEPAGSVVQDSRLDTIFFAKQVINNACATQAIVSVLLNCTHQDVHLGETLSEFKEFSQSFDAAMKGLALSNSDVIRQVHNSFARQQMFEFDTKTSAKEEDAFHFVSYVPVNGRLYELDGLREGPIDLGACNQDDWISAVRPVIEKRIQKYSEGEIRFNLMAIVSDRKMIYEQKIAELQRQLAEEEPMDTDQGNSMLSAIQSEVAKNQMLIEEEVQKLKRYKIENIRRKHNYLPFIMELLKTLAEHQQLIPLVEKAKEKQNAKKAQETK
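Reagent: Ub-AMC substrate; assay system: Proteasome-associated human UCH37 deubiquitinase; controls: no-proteasome and no-compound wells; read-out: % inhibition of Ub-AMC cleavage fluorescence; timing: 30 min preincubation with enzyme, 25 min cleavage at room temperature; signal: AMC fluorescence from Ub-AMC cleavage, excitation 355 nm, emission 460 nm; buffer or medium: Tris-HCl pH 7.4 plus ovalbumin, ATP-MgCl2, DTT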
HNF4A DNA FP: change in binding of human HNF4 alpha to DNA; P41235; HNF4a-FITC DNA binding, fluorescence polarization, 1 h; activity change, % at 10 µM; 0.3% of 360,000 active; in the data active = activity change above about 30%, passing the limit was not always enough;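 note: controls were the assay level and a saturating level of protein; the project sought stronger binding though the title names inhibitors; some compounds called inactive have numbers as strong as hits; positive values seem to mean higher polarization but the record does not say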
Target sequence (P41235 whole entry, looked up): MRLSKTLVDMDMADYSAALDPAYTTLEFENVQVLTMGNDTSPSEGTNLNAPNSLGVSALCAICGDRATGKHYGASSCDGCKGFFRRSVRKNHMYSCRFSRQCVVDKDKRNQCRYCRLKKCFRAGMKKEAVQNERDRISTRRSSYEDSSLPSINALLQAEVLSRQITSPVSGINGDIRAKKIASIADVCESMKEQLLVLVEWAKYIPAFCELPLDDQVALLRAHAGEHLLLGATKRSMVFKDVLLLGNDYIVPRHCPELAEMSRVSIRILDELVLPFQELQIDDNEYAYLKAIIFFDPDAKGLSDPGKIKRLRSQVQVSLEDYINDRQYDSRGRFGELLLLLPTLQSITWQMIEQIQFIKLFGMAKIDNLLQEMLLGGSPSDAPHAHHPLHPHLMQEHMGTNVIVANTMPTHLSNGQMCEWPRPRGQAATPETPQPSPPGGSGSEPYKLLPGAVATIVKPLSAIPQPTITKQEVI
E coli growth: blocks Escherichia coli growth; OD600, 23 h; active compounds read low; OD600 absorbance (no concentration beside the values); 0.21% of 330,000 active; AID 1053175;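 active = OD600 absorbance below the run mean of sample wells minus 3.6 SD, in any replicate, cut at about 0.56 in these data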;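 note: stock transfer was 300 nL into about 60 µL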
* = called active by the depositor; i = inactive; u = inconclusive; x = no result given; + = active, no number. These rows are one share of the data, so the mix of outcomes need not match the whole.

SMILES	B2AR ag	LANA-H2B inh	ALR inh	FGF22 binding	UCH37 DUB inh	HNF4A DNA FP	E coli growth
COc1ccc(COc2cccnc2N)cc1	x	-1.1	0.1	i	1.7	0.5	0.613
NS(=O)(=O)c1cc(C(=O)OCC(=O)NC2CCCCCCC2)ccc1Cl	-5.9	x	x	i	5.0	3.3	0.642
O=C(COC(=O)Cc1ccc(F)cc1)NCc1ccco1	4.6	-12.0	0.4	i	2.1	-0.3	0.673
CC(C)Cn1nc(NC(=O)c2ccco2)c2cc3ccccc3nc21	36.3	-5.5	51.5	i	-71.1	5.8	0.693
Cc1nn(C)c(C)c1S(=O)(=O)Nc1ccc2c(c1)OCO2	-3.6	7.7	-16.2	x	2.7	2.0	0.765
CS(=O)(=O)c1ccc(Cl)c(NC(=O)Cc2ccsc2)c1	-21.4	-2.6	-48.6	i	2.4	-1.5	0.733
COc1ccc(S(=O)(=O)Nc2cccc3c2O[C@H](CN(C)Cc2ccc(Oc4ccccc4)cc2)[C@@H](C)CN([C@H](C)CO)C3=O)cc1	-3.8	-4.2	-2.4	i	1.2	2.9	0.802
Cc1ccc(-n2nc3ccc(N)cc3n2)cc1Cl	-1.6	0.5	-0.5	i	-152.2	7.0	0.702
COc1ccc2cc(C(=O)C3CCCN(C(=O)c4cnn(C(C)C)c4)C3)ccc2c1 (centres undefined)	-4.0	-0.3	-3.6	i	i	-1.7	0.719
Oc1ccccc1/C=N/Nc1ccccc1	12.8	3.0	98.8*	i	x	1.4	x
CC(C)(C)S(=O)(=O)N1C[C@H]2C(=CC[C@@H]3C(=O)N(c4ccccc4)C(=O)[C@@H]32)[C@H]1CCO	1.4	x	x	i	-2.7	1.9	0.713
O=C(COc1ccc(/C=N/NC(=O)CSCc2ccc([N+](=O)[O-])cc2)cc1)NCc1ccco1	-8.3	-8.9	-22.8	i	x	1.8	x
Cc1csc(=O)n1CC(=O)OCC(=O)NC(C)c1ccc(F)cc1 (centres undefined)	7.2	1.6	-1.5	i	5.5	4.9	0.724
CCc1cc(=O)[nH]c(SCC(=O)Nc2cc(C)on2)n1	-1.7	-1.4	1.0	x	6.8	2.8	0.678
CCCCn1c(SCC(=O)Nc2cc(C)[nH]n2)nc2ccsc2c1=O	-13.1	-1.4	1.5	x	-0.8	-1.1	0.696
Cc1nc(SCc2ccc(C#N)cc2)n[nH]1	-5.1	3.7	-4.9	i	-3.0	2.2	0.694
Cn1c(=NC(=O)CSCC(=O)N2CCOCC2)sc2ccccc21	-10.7	1.4	-14.8	x	1.5	-1.1	0.73
Cc1cccc(C)c1NC(=O)CC(NCCc1ccccc1)C(=O)O (centres undefined)	-8.6	-0.4	-0.8	x	0.9	3.1	0.677
CCOC(=O)C1CCN(c2c(NCCC(C)C)c(=O)c2=O)CC1	-6.0	-2.2	-5.5	i	4.6	6.9	0.685
CCCCOC(=O)c1ccc(-c2ccc(/C=N/NC(=S)NCC)o2)cc1	10.9	2.4	0.8	x	x	-0.7	x
CC(C)N(C(=O)Cn1cc(SCC(=O)NCc2ccco2)c2ccccc21)C(C)C	-1.4	-1.2	0.2	+	3.5	-1.0	0.677
CCOc1ccc(NC(=O)CN(Cc2ccccc2)S(C)(=O)=O)cc1	6.7	-4.8	-5.2	x	-1.5	2.4	0.694
COc1ccc(OC)c(NC(=O)Cn2c(CCC(=O)O)ccc2-c2cccs2)c1	3.0	-2.7	x	x	-1.7	1.1	0.782
CC(C)c1ccc(S(=O)(=O)c2ccc(NN)cc2)cc1	9.4	x	x	i	1.8	0.1	0.713
CCOC(=O)C(C)Sc1ncnc2c1nnn2-c1ccc(F)cc1 (centres undefined)	1.7	0.8	96.4*	x	0.3	0.4	0.729
SMILES	B2AR ag	LANA-H2B inh	ALR inh	FGF22 binding	UCH37 DUB inh	HNF4A DNA FP	E coli growth
Cc1ccc(NC(=O)/C=C\C(=O)O)c([N+](=O)[O-])c1	-5.4	x	x	x	6.8	-1.3	0.692
CC(=O)Nc1ccc(NC(=O)C2CCN(C(=O)NC3CCCCC3)CC2)cc1	4.5	-1.3	x	i	-1.6	3.0	0.716
C=CCN(C(=O)c1ccccc1)C1CCS(=O)(=O)C1 (centres undefined)	-8.4	1.8	-1.9	i	2.8	3.0	0.645
CC1CCN(S(=O)(=O)c2cc3c4c(c2)CCN4C(=O)CC3)CC1	12.2	3.6	3.0	i	-1.0	-6.5	0.651
CNN/C(N=Cc1ccc([N+](=O)[O-])s1)=N\S(=O)(=O)c1cc(C)c(Cl)cc1SCc1ccccc1	-4.6	x	x	i	x	13.8	x
CCC1=NN2C(=N)/C(=C\c3ccc(SCc4ccco4)o3)C(=O)N=C2S1	0.4	-1.0	u	x	9.4	22.1	0.647
C=CCOC(=O)C1=C[C@@H](c2csc3ccccc23)C[C@@H](OCc2ccc(CO)cc2)O1	-11.3	-2.1	x	i	0.3	-3.3	x
Cc1ccc(NC(=O)CSCC#N)cc1	-1.6	-1.9	98.8*	x	0.6	0.7	0.68
Nc1ccc2oc(=O)c3ccccc3c2c1	10.8	-3.1	x	x	4.8	-2.5	0.676
COc1cc(CNCCN2CCOCC2)ccc1OCc1ccc(Cl)cc1Cl	27.5	-2.7	1.0	x	1.3	1.4	0.692
COc1ccc(C2SCCN2C(=S)Nc2ccc(F)cc2)cc1 (centres undefined)	-1.0	2.7	-7.1	i	0.9	2.4	0.713
COc1cccc2cc(CC(=O)c3cc(C)ccc3C)c(=O)oc12	4.2	-3.6	-9.8	i	2.7	1.0	0.681
CN(C)C(=O)CCSc1nnc(-c2ccncc2)o1	3.2	2.2	-13.6	i	-1.4	-2.6	0.704
COc1ccc(C2NS(=O)(=O)N=C2N)cc1 (centres undefined)	3.1	-5.7	-19.0	x	1.0	-3.0	0.654
COC(=O)CN1C(=O)[C@H]2[C@@H](c3ccc(C)o3)N3C(=O)CN(CC4CC4)C(=O)[C@@]3(C)[C@H]2C1=O	0.8	1.4	-0.1	i	3.3	-1.9	x
CCCn1nnnc1SCC(=O)NCc1ccc2c(c1)OCO2	-10.5	3.4	-4.6	x	-1.5	-0.7	0.753
Cc1ccc2c(c1)N(CC(=O)NCCCc1ccccc1)C(=O)c1cccnc1O2	-2.2	0.9	-3.4	x	1.0	2.1	0.717
Cc1cc(C)n(-c2ccc(Cl)c(C(=O)OCC(N)=O)n2)n1	-0.5	1.7	-2.2	x	0.0	3.7	0.71
COc1ccccc1CNC(=O)COC(=O)Cc1c(Cl)cccc1Cl	5.7	-1.1	-5.5	i	1.1	-0.5	0.669
COc1ccc([C@H]2CC(=O)C=C(c3cccc4c3Oc3ccccc3S4)C2)cc1OC	19.8	-1.7	-5.7	i	5.5	2.2	x
C/C(=N\NC(=O)c1cccc(Br)c1)c1cccnc1	-11.4	8.5	24.2	i	x	3.8	x
CCC(C)(C)n1nnnc1C(c1cc2ccc(OC)cc2[nH]c1=O)N1CCN(C2CCCCC2)CC1 (centres undefined)	1.0	3.4	x	x	-7.1	2.1	0.691
CN(C)S(=O)(=O)c1ccc(C(=O)NC(=O)CSc2nnnn2C)cc1	-6.6	-3.6	-8.4	i	3.9	2.9	0.717
Cc1cc2nnc(SCC(=O)NC3CCCCC3)n2c(N)n1	0.1	-2.1	2.1	i	3.5	0.2	0.638
COc1ccc(S(=O)(=O)Cc2ccc(C(=O)N3CCc4ccccc4C3)o2)cc1	4.3	-0.6	96.7*	i	10.9	1.6	0.749
SMILES	B2AR ag	LANA-H2B inh	ALR inh	FGF22 binding	UCH37 DUB inh	HNF4A DNA FP	E coli growth
O=C(CSc1ccccn1)Nc1ccccc1F	-7.9	-1.9	8.2	x	2.5	-2.3	0.619
O=C(O)CC(c1ccccc1)n1cccc1 (centres undefined)	12.8	5.8	-2.0	x	0.8	3.0	0.708
Cn1c(SCC(=O)N2CCOCC2)nnc1-c1ccc(NC(=O)c2ccccc2F)cc1	-0.4	4.0	-6.0	x	7.1	-0.2	0.715
CCOc1cc(/C=C2\SC(=Nc3ccccc3)N(c3ccccc3)C2=O)ccc1OCC(=O)O	-6.1	-3.1	51.7	i	14.7	3.6	0.682
Nc1ccccc1SC/C=C/CSc1ccccc1N	8.0	-0.7	99.0*	i	-0.7	1.9	0.669
N#Cc1nc(-c2ccc(Cl)cc2)oc1NCc1ccco1	0.1	1.3	-4.0	x	-62.3	3.4	0.697
COc1ccc(N(CC(=O)Nc2ccccc2C)S(=O)(=O)c2c(C)[nH]c(=O)[nH]c2=O)cc1	3.0	1.9	-2.3	i	1.3	1.3	0.694
CN(C)CCCNc1ncc(C(F)(F)F)cc1Cl	0.7	-7.4	10.6	i	-1.2	1.6	0.648
Cc1c(C(=O)N2CCCC2)c(S(=O)(=O)N2CCCCC2)c(C)n1C	0.8	-6.9	-6.5	i	0.1	1.1	0.661
CC(=O)c1cc2c(cc1NC(=O)Cn1nc(C)c(C)c(C#N)c1=O)OCO2	1.6	6.7	25.3	i	1.7	1.2	0.676
Cc1ccc(C(=O)NCN2CCN(c3ccc(F)cc3)CC2)cc1	12.5	1.7	x	i	4.6	-3.9	0.689
COCc1nc2ccccc2n1Cc1c(F)cccc1Cl	-3.5	0.4	-2.3	i	1.4	4.3	0.703
CCN(C(=O)CSc1nc2ccccc2c(=O)n1-c1cccc(C)c1)C1CCS(=O)(=O)C1 (centres undefined)	-5.4	-3.5	x	i	5.0	-1.4	0.681
CCOc1cccc(=O)c2c(C)n(Cc3ccccc3)c(C)c12	-2.9	0.4	1.9	i	2.1	2.0	0.725
O=C(NCc1cccnc1)c1cc(C(=O)C2CC2)c[nH]1	-0.3	-6.2	x	i	-0.4	6.5	0.643
O=C(CC1C(=O)NCCN1Cc1ccc(-c2ccccc2)cc1)NCc1ccccc1 (centres undefined)	-3.2	-0.2	-7.4	i	2.9	2.6	0.673
CCCCOc1ccc(N2C(=O)CC(N(O)c3ccccc3)C2=O)cc1 (centres undefined)	1.2	-1.7	-1.2	x	2.9	2.4	0.728
O=C(NCCCN1CCOCC1)C1COc2ccccc2O1 (centres undefined)	4.5	1.0	4.5	x	1.1	4.7	0.625
CC(=O)N(C)N1c2ccccc2CCc2ccccc21	-2.7	4.8	1.2	i	1.9	0.4	0.614
O=C(NCCN1CCN(Cc2ccccc2)CC1)C1c2ccccc2C(=O)N2CCc3ccccc3C12 (centres undefined)	0.2	3.4	-0.1	x	4.9	-0.7	0.677
O=C(c1ccc(S(=O)(=O)N2CCCC2)cc1)N(c1ccccc1)C1C=CS(=O)(=O)C1 (centres undefined)	3.6	0.4	20.5	i	1.6	-3.2	0.699
NC(=O)C1CCN(C(=O)c2ccc(NS(=O)(=O)c3ccc(F)c(F)c3)cc2)CC1	1.4	-3.1	x	i	0.3	-3.0	0.688
COc1ccc(CCNc2nc(-c3sc(C)nc3C)cs2)cc1OC	0.2	3.2	x	x	5.4	-2.7	0.677
COc1cccc(CCNC(=O)COc2cccc3c2OC(C)(C)C3)c1	-6.2	2.8	x	i	5.0	2.2	0.714
Cn1c(=O)n(CCOc2ccccc2Cl)c2ccccc21	4.8	-1.7	-3.8	x	5.9	1.1	0.743
Cc1cc(C)c(OCC(=O)Nc2nnc(C3CC3)s2)c(C)c1	3.5	x	x	i	5.6	-0.8	0.689
CCC(C)C(=O)Nc1cc(C(=O)OC)cc(C(=O)OC)c1 (centres undefined)	0.0	-0.4	1.3	i	3.7	-5.5	0.678
COc1ccc(/C=N\NC(=O)COc2ccc(Cl)cc2Cl)c(C(=O)O)c1OC	-6.1	2.8	-5.1	x	x	1.4	x
O=C(Nc1ccc2c(c1)CCC2)c1ccc(Br)o1	-17.8	-3.6	5.5	x	3.5	-5.4	0.663
Fc1ccc(-n2nnc(-c3ccccc3Cl)n2)cc1	-0.1	-1.3	-3.6	i	1.8	0.2	0.687

Screening results as filed in PubChem.
